H5N1 CPE = antiviral screen in MDCK cells, H5N1 avian flu | inhibition, % at 50 µM | cytopathic effect, luminescence, 72 h; active compounds read high; no value below 0 was filed and about half of the inactive calls have no number; reference of the scale not given here | 96,000 tested, 0.07% active; in the data active means inhibition above about 25%
* hit, by the source's call.

For Cc1nc(C)c(C(=O)C2=C(O)C(=O)N(CCCn3ccnc3)C2c2ccccc2)s1 (stereo not drawn) the results were H5N1 CPE 1.0.
COc1nc(NCCN2CCOCC2)nc(Nc2ccccc2)n1 was read as H5N1 CPE 0.1.
`N/C(Cc1ccc(Cl)cc1)=N\OC(=O)c1ccccc1` gave H5N1 CPE inactive.
For CCCN(Cc1cc2ccc(C)cc2[nH]c1=O)C(=O)c1ccccn1 the results were H5N1 CPE inactive.
For CC(=O)Oc1ccc2oc(C)c(C(=O)N3CCOCC3)c2c1 the results were H5N1 CPE 0.4.
Nc1nonc1-c1noc(-c2ccccc2Br)n1 was read as H5N1 CPE inactive.
Screening CCn1c2ccccc2c2cc(NC(=O)C(C)Oc3ccc(OC)cc3)ccc21 (stereo not drawn) returned H5N1 CPE 5.2.
For COc1ccc(C(c2nnnn2C2CCCC2)N2CCN(C3CCCC3)CC2)cc1OC (stereo not drawn) the results were H5N1 CPE 0.6.
Screening COc1ccc2nc(NC3=NCCC3)sc2c1 returned H5N1 CPE inactive.
`CCCn1c(SCC(=O)Nc2cccc(C)n2)nnc1-c1ccco1` gave H5N1 CPE inactive.
Screening Cc1ccc(NC(=O)CSc2nc3c(c(=O)[nH]2)CCC3)cc1C returned H5N1 CPE 0.7.
`CCOC(=O)CC1=Nc2ccccc2NC(=O)C1` gave H5N1 CPE inactive.
CC(=O)Oc1ccc2cc(-c3nc4ccccc4n3C)c(=O)oc2c1 was read as H5N1 CPE inactive.
`COc1cccc(C(=O)NCc2ccc(-c3nc4ccccc4s3)cc2)c1` gave H5N1 CPE inactive.
Screening Oc1ccccc1C(=S)N1CCCCCC1 returned H5N1 CPE 0.7.
Screening CC(C)Cc1nc(N2CCOCC2)c(C#N)c2c1COC(C)(C)C2 returned H5N1 CPE 3.3.
Screening Cc1nc2ccccc2n1CC(=O)N/N=C\c1ccccn1 returned H5N1 CPE 1.8.
`CCCCN(C)CCC(=O)Nc1ccc(OC)cc1OC` gave H5N1 CPE inactive.
Screening Cc1ccc(CNc2nc(C)nc3sc4c(c23)CCC4)cc1 returned H5N1 CPE inactive.
O=C(CN1CCN(c2ccccc2F)CC1)Nc1ccccc1F was read as H5N1 CPE inactive.
[N-]=[N+]=CC(=O)CCCN1C(=O)c2ccccc2C1=O was read as H5N1 CPE 1.2.
`Cc1ccccc1NS(=O)(=O)c1ccc(OCC(=O)N2CCCCC2)cc1` gave H5N1 CPE 1.6.
`COc1ccc(NC(=O)CSc2nnc(Cc3cccs3)n2-c2ccc(C)cc2)cc1` gave H5N1 CPE inactive.
Screening O=C(c1ccccc1)c1nc[nH]c1C(=O)Nc1ccccn1 returned H5N1 CPE 3.4.
For COCC(C)NCc1cccc(C)c1 (stereo not drawn) the results were H5N1 CPE inactive.
For O=C(CN1CCSCC1)N/N=C/c1ccccc1F the results were H5N1 CPE 1.5.
`O=C(CSc1nnc(-c2ccccc2F)o1)OCc1ccccc1` gave H5N1 CPE inactive.
`CN(c1ccc(OCC(=O)NC2CCCC2)cc1)S(=O)(=O)c1cccs1` gave H5N1 CPE 0.1.
For Cc1ccc(Nc2cccccc2=O)cc1 the results were H5N1 CPE inactive.
For O=C(Nc1cccc2cccc(NC(=O)c3ccco3)c12)c1ccco1 the results were H5N1 CPE 0.3.
O=C(Nc1ccccc1-c1nnn(CC(=O)N2CCN(c3ccccc3)CC2)n1)c1cccs1 was read as H5N1 CPE 1.8.
For COC(=O)c1ccc(NC(=O)CSc2nc(C)cc(=O)[nH]2)cc1 the results were H5N1 CPE inactive.
Screening O=C(O)CN1C(=O)C2C3C=CC(C3)C2C1=O (stereo not drawn) returned H5N1 CPE inactive.
Screening CCCN1C(=O)C(O)(C2CC(=O)CC(C)(C)O2)c2ccccc21 (stereo not drawn) returned H5N1 CPE inactive.
`O=C(CNCC1CCCO1)N1CCCc2ccccc21` (stereo not drawn) gave H5N1 CPE inactive.
`O=C(CSc1n[nH]c(-c2cccs2)n1)NCc1ccc2c(c1)OCO2` gave H5N1 CPE 0.3.

Reprinted at random: seven entries already listed.
For COC(=O)c1ccc(NC(=O)CSc2nc(C)cc(=O)[nH]2)cc1 the results were H5N1 CPE inactive.
O=C(Nc1ccccc1-c1nnn(CC(=O)N2CCN(c3ccccc3)CC2)n1)c1cccs1 was read as H5N1 CPE 1.8.
`O=C(CSc1nnc(-c2ccccc2F)o1)OCc1ccccc1` gave H5N1 CPE inactive.
Screening CCCN1C(=O)C(O)(C2CC(=O)CC(C)(C)O2)c2ccccc21 (stereo not drawn) returned H5N1 CPE inactive.
`O=C(CSc1n[nH]c(-c2cccs2)n1)NCc1ccc2c(c1)OCO2` gave H5N1 CPE 0.3.
`CN(c1ccc(OCC(=O)NC2CCCC2)cc1)S(=O)(=O)c1cccs1` gave H5N1 CPE 0.1.
For O=C(CN1CCSCC1)N/N=C/c1ccccc1F the results were H5N1 CPE 1.5.

(list continues)
Screening CCOC(=O)c1cccc(NC(=O)CSc2nc3cccnc3n2C)c1 returned H5N1 CPE inactive.
`COC(=O)C(=O)Nc1nnc(COc2ccccc2)s1` gave H5N1 CPE inactive.
COc1ccc(CNC(=O)C2CC(c3cccc(OC)c3)=NO2)cc1 (stereo not drawn) was read as H5N1 CPE inactive.
`COc1ccccc1C(=O)Nc1ccc(C(=O)N2CCCC2)cc1` gave H5N1 CPE 0.3.
For COCCNC(=O)Nc1ccc2c(c1)N(C)C(=O)CS2 the results were H5N1 CPE 1.1.
`CCOC(=O)NC(Nc1ccc(C)cn1)(C(F)(F)F)C(F)(F)F` gave H5N1 CPE inactive.
For CCOC(=O)N1CCN(S(=O)(=O)c2ccc3c(c2)oc(=O)n3C)CC1 the results were H5N1 CPE inactive.
For CC1(C)CCCC2=C1CC1C(=O)N(O)C(=O)C1C2 (stereo not drawn) the results were H5N1 CPE 0.1.
`Cc1nn(-c2ccccn2)c2c1C(c1ccccn1)C1=C(CCCC1=O)N2` (stereo not drawn) gave H5N1 CPE inactive.
`COc1c(O)cccc1-c1nnn(CCC(=O)OCC(=O)c2ccccc2)n1` gave H5N1 CPE inactive.
Screening O=C(CSc1nnc(-c2ccccc2F)n1C1CCCCC1)N1CCCC1 returned H5N1 CPE 0.3.
`O=C(CCCOc1ccccc1)Nc1cccc(C(=O)O)c1` gave H5N1 CPE 0.2.

The final 2 records of the section above open the next one:
Screening O=C(CSc1nnc(-c2ccccc2F)n1C1CCCCC1)N1CCCC1 returned H5N1 CPE 0.3.
`O=C(CCCOc1ccccc1)Nc1cccc(C(=O)O)c1` gave H5N1 CPE 0.2.
Screening Cc1cc(C(=O)N/N=C/C=C/c2ccc3c(c2)OCO3)n[nH]1 returned H5N1 CPE 0.5.
Screening COc1ccc2c(=O)c3c(=O)n(Cc4ccco4)c(-c4ccccc4)nc3oc2c1 returned H5N1 CPE 4.3.
`Cc1c(NC(=O)C(C)OC(=O)COc2cccc3c2OC(C)(C)C3)c(=O)n(-c2ccccc2)n1C` (stereo not drawn) gave H5N1 CPE 1.0.
`Cc1onc(-c2ccccc2Cl)c1C(=O)NCC(=O)O` gave H5N1 CPE 1.3.
Cc1cccc(C(=O)Nc2ccc(C)c(OC(=O)c3cccc(C)c3)c2)c1 was read as H5N1 CPE inactive.
CCCCC(=O)Nc1cccc(NC(=O)c2ccc(Br)cc2)c1 was read as H5N1 CPE 0.1.
Cc1cc(C)n(C(=O)c2ccc(C)c(S(=O)(=O)N3CCCCC3)c2)n1 was read as H5N1 CPE 0.3.
O=c1c2ccccc2nc2n1CC/C2=C/N1CCN(c2cccc(C(F)(F)F)c2)CC1 was read as H5N1 CPE inactive.
Screening C=CCNC(=O)NS(=O)(=O)c1ccc(C)cc1 returned H5N1 CPE 0.3.
For Cc1ccc(C(C)C)c(OCC(O)CN2CCOCC2)c1 (stereo not drawn) the results were H5N1 CPE 0.4.
Screening COc1ccc(C2C(=O)N(C3CCCCC3)CC(=O)N2Cc2ccco2)cc1 (stereo not drawn) returned H5N1 CPE inactive.
Screening Cc1ccc(-c2nc3cnccn3c2Nc2ccc3c(c2)OCO3)o1 returned H5N1 CPE 1.6.
For O=C(c1ccco1)N1CCN(C(=O)C2CCCN(S(=O)(=O)c3cccc4nsnc34)C2)CC1 (stereo not drawn) the results were H5N1 CPE 0.2.
Screening O=C(Nc1ccc(C(F)(F)F)cc1Cl)c1ccc(Cn2cc(Br)cn2)o1 returned H5N1 CPE inactive.
CC(C)NC(=O)c1cc(-c2ccc(Br)cc2)on1 was read as H5N1 CPE 1.2.
`Cc1ccc(Nc2cc(-n3nc(C)cc3C)ncn2)c(C)c1` gave H5N1 CPE 0.2.
Cc1cccc(-c2noc(CCC(=O)NCC3CCCO3)n2)c1 (stereo not drawn) was read as H5N1 CPE inactive.
Screening O=C(CNC(=O)c1ccco1)OCc1cccc(Cl)c1 returned H5N1 CPE inactive.
Screening NCCc1nnc(SCc2ccccc2F)o1 returned H5N1 CPE 1.3.
Screening CC(C)(C)NC(=O)CSc1ncnc2c1nnn2Cc1ccccc1Cl returned H5N1 CPE inactive.
Screening COC(=O)c1c(S(N)(=O)=O)c2ccccc2n1C returned H5N1 CPE 0.8.
Screening O=C(CSc1nc2cc3ccccc3cc2[nH]1)Nc1ccc(F)cc1 returned H5N1 CPE inactive.
C=CCc1ccc(OCCCCCN2CCOCC2)c(OC)c1 was read as H5N1 CPE inactive.
Screening CC(C)N(C(=O)c1ccccc1-c1ccccc1)C(C)C returned H5N1 CPE inactive.

Reprinted from the part before: two entries; new compounds follow.
C=CCc1ccc(OCCCCCN2CCOCC2)c(OC)c1 was read as H5N1 CPE inactive.
Screening CC(C)N(C(=O)c1ccccc1-c1ccccc1)C(C)C returned H5N1 CPE inactive.
`O=C(NCc1cccnc1)C1CCN(C(=O)c2ccc(Cl)cc2Cl)CC1` gave H5N1 CPE 2.2.
`Cc1cc(=O)oc2c1ccc1oc(/C(=N/O)c3ccccc3)c(C)c12` gave H5N1 CPE 0.5.
`Cc1ccccc1N1CCN(C(=O)C2CCCCC2)CC1` gave H5N1 CPE inactive.
For O=C(CSc1ccccc1)Nc1ccc(N2CCN(c3ccccc3)CC2)c(F)c1 the results were H5N1 CPE inactive.
Screening Cc1ccc(C)n1NC(=O)c1ccc(O)cc1 returned H5N1 CPE inactive.
Screening Cc1nn(C(C)C(=O)NCc2ccccc2)c(C)c1[N+](=O)[O-] (stereo not drawn) returned H5N1 CPE 0.1.
Screening CSCC[C@H](NC(=O)CCn1nnc2ccccc2c1=O)C(=O)O returned H5N1 CPE inactive.
`N#Cc1ccccc1Cn1c(=O)n(-c2ccc(CC(=O)NCc3ccco3)cc2)c(=O)c2sccc21` gave H5N1 CPE inactive.
Screening CCOC(=O)c1ccc(CSc2ncn[nH]2)o1 returned H5N1 CPE 1.8.
Screening CC(=O)c1cnc2cc(-c3ccc(Cl)cc3)nn2c1C returned H5N1 CPE inactive.
Screening FC(F)(F)c1nc(N2CCN(c3ccccc3)CC2)nc2c1CCCCC2 returned H5N1 CPE 0.2.
For CC1CC(C)CN(C(=O)CSc2nnc(-c3ccc(Cl)s3)o2)C1 (stereo not drawn) the results were H5N1 CPE 0.9.
COc1cc(C(=O)Oc2ccccc2N)cc(OC)c1OC was read as H5N1 CPE inactive.
`COc1ccc(COC(=O)Nc2cc3c(C(F)(F)F)nn(C)c3s2)cc1` gave H5N1 CPE inactive.
O=C(NCN1C(=O)C2C3C=CC(C3)C2C1=O)Nc1ccccn1 (stereo not drawn) was read as H5N1 CPE 0.5.
`CCCCSc1nc2c(c(=O)n1CC)SC(C)C2` (stereo not drawn) gave H5N1 CPE inactive.
`O=C(NC1CC1)C1CCN(Cc2cnn(-c3ccccc3)c2-n2cccc2)CC1` gave H5N1 CPE 0.4.
`CN(c1ccccc1C(=O)NCC1CCCO1)S(C)(=O)=O` (stereo not drawn) gave H5N1 CPE 0.3.
COc1ccc(NC(=O)Cn2nnc(-c3ccccc3NC(=O)c3ccco3)n2)cc1 was read as H5N1 CPE 0.0.
For CCOC(=O)c1c(NC(=O)C2CCN(S(=O)(=O)c3cccs3)CC2)sc(C)c1C the results were H5N1 CPE inactive.
For CCN(CC)CCNc1nc2cc(OC)c(OC)cc2c2nc(-c3ccccc3)nn12 the results were H5N1 CPE inactive.
`Cc1ccc(Nc2ncccc2C(=O)O)cc1C` gave H5N1 CPE 0.1.
Screening CCOC(=O)C1CCCN(c2c(NCCN(CC)c3ccccc3)c(=O)c2=O)C1 (stereo not drawn) returned H5N1 CPE 2.2.
Screening CN1c2ccccc2C(O)=C(C(=S)Nc2ccccc2)S1(=O)=O returned H5N1 CPE inactive.
`Cc1cc(C(=O)Nc2sc3c(c2C#N)CCC(C(C)(C)C)C3)no1` (stereo not drawn) gave H5N1 CPE 0.8.
`O=C(c1cc(-c2cccs2)on1)N1CCN(c2ccccc2)CC1` gave H5N1 CPE inactive.
`CCC(CC)C(=O)NCc1ccc2c(c1)cc(C)n2C` gave H5N1 CPE 0.5.
Screening CC(C)(C)NS(=O)(=O)c1cccc(S(=O)(=O)c2cccc(S(=O)(=O)NC(C)(C)C)c2)c1 returned H5N1 CPE 2.1.
O=C(Nn1cnnc1)C1CCCN1S(=O)(=O)c1ccc(F)cc1 (stereo not drawn) was read as H5N1 CPE inactive.
`COC(=O)CNc1nc(-c2ccncc2)nc2ccccc12` gave H5N1 CPE 1.0.
`COc1ccc(CCNS(=O)(=O)c2ccc3c(c2)CC(C)N3C(C)=O)cc1OC` (stereo not drawn) gave H5N1 CPE 1.4.
`CC1CCCCN1Cc1nc2ccccc2c(=O)[nH]1` (stereo not drawn) gave H5N1 CPE 1.4.
O=C1[C@@H]2C(c3ccccc3Cl)=NO[C@@H]2C(=O)N1Cc1ccccc1 was read as H5N1 CPE inactive.
Screening Cc1ccc(NC2=NC(c3ccc(C)cc3)n3c(nc(C)cc3=O)N2)cc1 (stereo not drawn) returned H5N1 CPE 0.4.
For Cc1ccc(NC(=O)COC(=O)CCc2c[nH]c(=O)[nH]2)cc1 the results were H5N1 CPE inactive.
FC(F)(F)C1=CC(c2ccccc2)=NCCN1 was read as H5N1 CPE inactive.

By substructure: those above containing a tert-butyl group
Screening CC(C)(C)NC(=O)CSc1ncnc2c1nnn2Cc1ccccc1Cl returned H5N1 CPE inactive.
`Cc1cc(C(=O)Nc2sc3c(c2C#N)CCC(C(C)(C)C)C3)no1` (stereo not drawn) gave H5N1 CPE 0.8.
Screening CC(C)(C)NS(=O)(=O)c1cccc(S(=O)(=O)c2cccc(S(=O)(=O)NC(C)(C)C)c2)c1 returned H5N1 CPE 2.1.

Screens: PubChem, SRMLSC

Some of the compounds tested; count on the stated rates, not on these rows.
